Screening data: PubChem, National Center for Advancing Translational Sciences (NCATS)
2A firefly = FMDV 2A StopGo reporter, firefly signal; HEK cells with a luciferase reporter of 2A StopGo recoding; Potency, µM (doses to about 57.5 µM), without a hit: at the highest dose signal change, negative = less light; hit rate 0.23% among 120,000; AID 1745856; active = well fitted falling curve with a large enough effect; inconclusive = small, poorly fitted or top-dose-only effect; inactive = no such curve, though single readings can be large or run the other way; note: nearly all actives have a fitted effect of over 60% in size; overnight with compound
2A Renilla = FMDV 2A StopGo reporter, Renilla signal; HEK cells with a luciferase reporter of 2A StopGo recoding; Potency, µM (series often up to 57.5 µM), without a hit: at the highest dose signal change, negative = less light; hit rate 0.32% among 120,000; AID 1745857; active means well fitted falling curve with a large enough effect; inconclusive means small, poorly fitted or top-dose-only effect; inactive means no such curve, though single readings can be large or run the other way; note: nearly all actives have a fitted effect of over 55% in size; overnight with compound
An asterisk follows results filed as active; ? = inconclusive; & = joins results of further samples; [ ] = another dose, or the depositor's remark. % is set by controls: 0 for no effect and ±100 for the full control effect; potency is the fitted concentration of half-maximal effect.

SMILES	2A firefly	2A Renilla
COc1ccc(C)cc1NC(=O)c1nnn(Cc2cccc(Br)c2)c1N	7%	80%[activator]
NS(=O)(=O)c1ccc(NC(=O)CSc2ccc3ccccc3n2)cc1	18%	29%
CN(C(=O)CSc1nnc(-c2ccncc2)n1C)C1CCS(=O)(=O)C1 (stereo not given)	-9%	-14%
COc1ccccc1C(=O)Nc1cccc(OCc2cc(=O)n3c(C)csc3n2)c1	75%[activator]	11%
O=C(Nc1c(N2CCCC2)c2ccccc2oc1=O)c1ccccc1	19%	-8%
O=C(CSc1nnc2n(-c3ccccc3)c(=O)c3ccccc3n12)Nc1ccc(Cl)cc1	-5%	0%
CC1CC2(CCCCCC2)Nc2ccc(F)cc21 (stereo not given)	-2%	-2%
COCCCNC(=O)c1cc(C)nc2ccc(C)cc12	-9%	-5%
COc1ccccc1NC(=O)C1=C(C)Nc2nnnn2C1c1cc(Br)c(O)c(OC)c1 (stereo not given)	-1%	5%
CCS(=O)(=O)c1c(Nc2ccc(F)c(Cl)c2)sc(C(=O)c2ccccc2)c1N	-3%	38%[activator]
CC(C)(C)OC(=O)NC(Cc1ccccc1)C(=O)Nc1ccccc1 (stereo not given)	12%	11%
O=C(CSc1nc(-c2ccccc2)no1)N1CCN(c2ccccc2F)CC1	4%	-14%
O=C(NC1CCCCC1)C1(c2cccc(Cl)c2)CCC1	0%	7%
COc1ccc(CNC(=O)Cn2nc(C)c3nn(-c4ccc(Cl)cc4)c(C)c3c2=O)cc1	-9%	-7%
COc1cccc(OCCCOc2ccccc2/C=N/NC(=O)c2cccc(Cl)c2)c1	121%[activator]	4%
CCOC(=O)c1ccc(N2C(=O)c3[nH]nc(-c4ccc(OCC)cc4)c3C2c2cccs2)cc1 (stereo not given)	-6%	-4%
O=C(Nc1ccc(Cl)cc1C(F)(F)F)c1cc(S(=O)(=O)NCc2ccccc2)ccc1F	-7%	85%[activator]
COc1ccc(COCC(O)CSc2nncs2)cc1OC (stereo not given)	6%	8%
CCc1ccc(NC(=O)CSc2nc3ccccc3o2)cc1	144%[activator]	-18%
CC(=O)NC(C)C(=O)Nc1ccc(SC2CCCC2)cc1 (stereo not given)	113%[activator]	38%[activator]
N#C/C(=C/c1cccc(OCc2cccc(C#N)c2)c1)c1ccc(C(F)(F)F)cn1	0%	-5%
Cc1nc(CC(=O)Nc2ccc(C)c(C)c2)cs1	26%	-2%
C/C(=N\Nc1cc(C)nc(NCc2ccccc2)n1)c1ccncc1	31%[activator]	13%
CCOC(=O)Cn1c(CN2CCN(c3ccccc3F)CC2)nc2c1c(=O)n(C)c(=O)n2C	3%	-19%
CC(C)c1cccc(C(C)C)c1NC(=O)/C=C/c1cccc(F)c1	4%	8%
COc1ccc(CCNC(=O)Cn2cc(C(=O)c3ccc(Cl)cc3)c(=O)c3ccc(C)nc32)cc1OC	-11%	-12%
CC(C)(C)c1ccccc1NC(=O)c1ccc(F)cc1F	5%	-4%[1.06 µM]
Cc1[nH]c2ccc(C(=O)N3CCN(Cc4ccccc4)CC3)cc2c1C	63%[activator]	-6%
COc1cc(OC)cc(C2Nc3ccccc3C(=O)N2C2CC2)c1 (stereo not given)	3%	3%
O=C1c2ccccc2S(=O)(=O)N1Cc1nc(-c2cc(F)ccc2F)cs1	21%	5%
CN(CCOc1ccccc1F)C(=O)c1cnc2ccccc2n1	160%[activator]	8%
O=C(OC1C[C@H]2CC[C@@H](C1)[N+]21CCCC1)C(O)(c1ccccc1)c1ccccc1 (stereo not given in full)	-15%	-21%
COc1ccc(-c2cc(C(=O)Nc3c(C(=O)c4ccc(C)c(F)c4)oc4ccccc34)no2)cc1	4%	-10%
CC(C)(C)NC(=O)NC(=O)CSc1nnc(-c2c[nH]c3ccccc23)o1	46%[activator]	4%
CC(C)[n+]1c(NCc2cc(Br)cc(Br)c2[O-])[nH]c2ccccc21	6%	5%
COCCCNC(=O)CN1C(=O)COc2ccc(S(=O)(=O)N3CCCC3)cc21	-7%	-5%
COc1ccc(Nc2cc(C(=O)NCCCN(C)c3ccccc3)c3ccccc3n2)c(OC)c1	-8%	19%
CCOc1ccccc1CNC(=O)c1nc(-c2ccc(Cl)cc2)n2c1CCCCC2	0%	0%
CN(C)CCNCC1CCCO1 (stereo not given)	-6%	-5%
CCc1cccc(NC(c2nnc(-c3ccccc3)o2)c2ccc(F)cc2Cl)c1 (stereo not given)	-15%	48%[activator]
COc1ccc(Cn2c(=O)c3c(n4cnnc24)-c2ccccc2CC32CCCCC2)cc1	-12%	-9%
CCn1nc(-c2ccc(C)c(S(=O)(=O)N3CCCCC3)c2)c2c(c1=O)CCCC2	11%	45%[activator]
CCCCCCCCCCCCCCCCN(C)C	-9%	-7%
COc1ccc(CNC(=O)c2cnc(N3CCCC3)nc2C)c(OC)c1	0%	2%
Cc1cc(C)c(-c2cc(C(=O)Nc3ccccc3C(F)(F)F)[nH]n2)c(O)c1	29%	-4%
COc1ccccc1CNC(=O)CS(=O)(=O)c1cccc2nsnc12	?	-27%
Cc1csc(NC(=O)NC2CC(=O)N(c3cccc(F)c3)C2)n1 (stereo not given)	27%	-16%
COc1ccc(N(CC(=O)NCCc2ccccc2)S(=O)(=O)c2ccc(OC)c(OC)c2)cc1	-13%	-8%
C=CCNC(=S)NNC(N)=S	25%	16%
O=C(O)c1ccc(Nc2nc(-c3cc4ccccc4oc3=O)cs2)cc1	79%[activator]	-11%
C=CCNC(=O)NC(=O)COC(=O)/C=C/C=C/C	2%	-10%
CC(Sc1nnnn1C1CCCC1)C(=O)c1c[nH]c2ccccc12 (stereo not given)	7%	40%[activator]
O=C(Nc1ccc(S(=O)(=O)N2CCC(Cc3ccccc3)CC2)cc1)C1=COCCO1	5%	2%
Cc1[nH]c2ccccc2c1C1c2ccccc2C(=O)N1CC(=O)NCC(N)=O (stereo not given)	-4%	-6%
O=C(Cn1ccc2ccc(F)cc21)Nc1ccc(CCO)cc1	0%	80%[activator]
COC(=O)CCN(c1ccccc1)S(=O)(=O)c1cc(-c2cc(C)no2)ccc1OC	24%	240%[activator]
Cc1cccc(OCc2nc3c(C)cccc3[nH]2)c1	0%	3%
COc1ccc(S(=O)(=O)n2nc(C)c(S(=O)(=O)N3CCCCC3)c2C)cc1	-7%	15%
Cc1nc(C(=O)O)c(C(=O)O)nc1C	?	17%[1.06 µM]
Cc1ccc(-c2ccc(=O)n(C(C)C(=O)Nc3ccccc3Cl)n2)cc1C (stereo not given)	-13%	-7%

Rewritten with bars between the fields: six of the compounds above
canonical_smiles | 2A firefly | 2A Renilla
COc1ccc(N(CC(=O)NCCc2ccccc2)S(=O)(=O)c2ccc(OC)c(OC)c2)cc1 | -13% | -8%
C=CCNC(=S)NNC(N)=S | 25% | 16%
O=C(O)c1ccc(Nc2nc(-c3cc4ccccc4oc3=O)cs2)cc1 | 79%[activator] | -11%
C=CCNC(=O)NC(=O)COC(=O)/C=C/C=C/C | 2% | -10%
CC(Sc1nnnn1C1CCCC1)C(=O)c1c[nH]c2ccccc12 (stereo not given) | 7% | 40%[activator]
O=C(Nc1ccc(S(=O)(=O)N2CCC(Cc3ccccc3)CC2)cc1)C1=COCCO1 | 5% | 2%

Back to the main list with the 4 entries that preceded the break.
SMILES	2A firefly	2A Renilla
Cc1cccc(OCc2nc3c(C)cccc3[nH]2)c1	0%	3%
COc1ccc(S(=O)(=O)n2nc(C)c(S(=O)(=O)N3CCCCC3)c2C)cc1	-7%	15%
Cc1nc(C(=O)O)c(C(=O)O)nc1C	?	17%[1.06 µM]
Cc1ccc(-c2ccc(=O)n(C(C)C(=O)Nc3ccccc3Cl)n2)cc1C (stereo not given)	-13%	-7%
COc1ccccc1CCNC(=O)C(=O)NCC(c1ccco1)S(=O)(=O)c1cccs1 (stereo not given)	?	-18%
COCCCNc1oc(-c2ccc(C)cc2)nc1C#N	170%[activator]	32%[activator]
O=C(NCc1ccc(CN2CCCCC2)cc1)c1ccc(C(F)(F)F)nc1	11%	17%
CNc1ccc(OC(F)(F)F)cc1	6%	6%
COc1ccc(CCNC(=O)CN2C(=O)COc3ccc(S(=O)(=O)N4CCCCCC4)cc32)cc1OC	-13%	1%
CC(C)(C)c1ccc(C(=O)NCCCNC(=O)c2cc3ccccc3[nH]2)cc1	94%[activator]	17%
COc1cc(NC(=O)Nc2nnc(N3CCCCCC3)s2)cc(OC)c1	-14%	-10%
CC(C)CNC(=O)C(Cc1ccccc1)NC(=O)c1ccccc1 (stereo not given)	7%	68%[activator]
ClC(=C\c1ccccc1)/C=N/N1CCN(Cc2ccc(Cl)cc2)CC1	-6%	0%
COC(=O)c1ccccc1NC(=O)Cn1c(=O)n(CCCC(=O)NCCc2ccc(OC)c(OC)c2)c(=O)c2ccccc21	15%	-1%
CCOc1ccc(Cn2nnc3c(=O)[nH]c(C4CCN(C(=O)c5ccccc5)CC4)nc32)cc1	-15%	-13%
Cc1ccc(-n2ncc3c(NCCCc4ccccc4)ncnc32)cc1C	30%	-4%
COc1cccc(/C=C/C(=O)C23CC4CC(CC(C4)C2)C3)c1OC	17%	46%[activator]
O=C(OCC1CC1)c1ccc(-c2ccccc2)cc1	0%	5%
CCCCNC(=O)c1ccc2c(c1)N(Cc1ccccc1)C(=O)CS2=O (stereo not given)	-12%	-5%
O=C(Cn1ncc2c3ccccc3n(Cc3ccccc3)c2c1=O)Nc1ccccc1C(F)(F)F	-7%	-13%
CCCNC(=O)c1cc(C)c(CC)s1	67%[activator]	-2%
CCOC(=O)c1c(C)sc(-c2c(-c3cccc(Cl)c3)[nH]c3c2c(=O)n(C)c(=O)n3C)c1O	-13%	14%
COC(=O)CCCNC(=O)CN1CCCCCC1	?	15%
CCCNC(=O)c1ccc2c(c1)ncn2-c1ccc(C)cc1C	5%	13%

Complete entries, quoted from the list.
Record of `CC(C)CNC(=O)C(Cc1ccccc1)NC(=O)c1ccccc1` (stereo not given) : 2A firefly = 7%; 2A Renilla = 68%[activator]
Record of `COc1ccc(CCNC(=O)Cn2cc(C(=O)c3ccc(Cl)cc3)c(=O)c3ccc(C)nc32)cc1OC` : 2A firefly = -11%; 2A Renilla = -12%

(continued)
SMILES	2A firefly	2A Renilla
COc1cccc(NC(=O)c2oc3ccc(S(=O)(=O)N4CCC5(CC4)OCCO5)cc3c2C)c1	0%	-30%
CC(C)c1ccc(C2=NC(c3ccncc3)=Nc3ccc(F)cc3N2)cc1	13%	-4%
CCOC(=O)c1cccc(NS(=O)(=O)c2cc3c(cc2C)NC(=O)CO3)c1	-4%	201%[activator]
CCN(CC)CCCNC(=O)c1oc2c(c1C)-c1nn(Cc3ccc(Cl)cc3)cc1CC2	?	-13%
Cn1nc(C(=O)Nc2ccc(-c3ccccc3)cc2)c2ccccc2c1=O	35%[activator]	-3%
COc1ccc(NC(=O)C=C(C)C)cc1OC1CCCC1	0%	26%
Cc1c(CCC(=O)NCc2ccc(F)cc2)c(=O)oc2cc(O)ccc12	13%&10%	48%&3%[activator]
COCC(=O)n1nc(NCc2ccccc2Cl)nc1NCc1ccccc1Cl	-4%	153%[activator]
COC(=O)c1cc(Cl)ccc1NC(=O)CSc1ncc(S(=O)(=O)c2ccc(Br)cc2)c(=O)[nH]1	-15%	-11%
CN(C)S(=O)(=O)N(CC(=O)NCCSCc1ccccc1)c1ccccc1	-1%	9%
C/C=C/CSc1nc2c(c(=O)[nH]c(=O)n2C)n1CCC	-3%	3%
Cc1cc2c(s1)CCc1cc(C(=O)NC3CCCCC3)sc1-2	19%	19%
O=C(c1ccc(C2SCCS2)cc1)N1CCN(S(=O)(=O)c2ccc(F)cc2)CC1	11%	-5%
CNCCCNCc1ccc(C)s1	17%	30%
